Screening data from PubChem.
T cruzi repl: T. cruzi replication inhibition. T. cruzi beta-gal in NIH3T3, luminescence, 90 h. 1.4% of 300,000 active. inhibition, % (test concentration not listed). AID 1885;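 active means mean inhibition across valid replicates above about 55%, limit read from the data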;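 further: signal also drops with host cell toxicity which is not excluded here; 0% = plate median of DMSO wells and 100% = zero luminescence signal; higher percent means less beta-gal luminescence so fewer parasites; stock transfer was 50 nL into about 50 µL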
AF4-AF9 inh: blocks AF4 peptide binding to human AF9; AlphaScreen, biotin-AF4 peptide binding to FLAG-AF9; P42568; 0.47% of 350,000 active; inhibition, % at 10 µM;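 active means every replicate reaching a set inhibition limit, whatever the replicate mean, cut at about 25% in these data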;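 further: 0% = plate neutral control median and 100% = total signal loss; the record names both 10 and 1 µM as test concentration; the first replicate is given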
Target sequence (P42568 whole entry, looked up): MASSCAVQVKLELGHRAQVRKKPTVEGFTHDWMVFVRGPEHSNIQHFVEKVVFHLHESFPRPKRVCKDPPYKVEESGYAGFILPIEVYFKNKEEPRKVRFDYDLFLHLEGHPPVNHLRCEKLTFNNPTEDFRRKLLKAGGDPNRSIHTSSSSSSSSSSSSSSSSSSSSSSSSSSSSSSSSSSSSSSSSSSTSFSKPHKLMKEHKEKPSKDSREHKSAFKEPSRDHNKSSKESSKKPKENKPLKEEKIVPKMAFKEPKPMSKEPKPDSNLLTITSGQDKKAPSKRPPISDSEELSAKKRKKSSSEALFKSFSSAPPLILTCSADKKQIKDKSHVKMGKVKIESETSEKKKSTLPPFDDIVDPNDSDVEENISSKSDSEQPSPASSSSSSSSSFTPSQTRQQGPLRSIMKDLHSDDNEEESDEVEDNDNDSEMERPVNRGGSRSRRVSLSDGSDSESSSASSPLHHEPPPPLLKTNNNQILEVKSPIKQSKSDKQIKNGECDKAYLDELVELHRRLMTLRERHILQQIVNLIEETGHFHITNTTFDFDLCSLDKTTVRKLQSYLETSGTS
Beta apoptosis: blocks beta cell apoptosis; AID 435005; INS-1E cytokine-induced death, ATP luminescence, 48 h; percent of positive-control rescue, neutral wells zero; 0.8% of 300,000 active; protection from apoptosis, % (no concentration beside the values);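 active means all replicates at 75% or more, or half of them and the mean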;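 further: 0% = cytokine-treated negative control wells and 100% = positive control rescue; higher means more ATP so stronger rescue from cytokine killing; wells of about 40 µL received 100 nL stock; the first replicate is given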
A1 inh: inhibitors of the anti-apoptotic protein A1, read as caspase activation; MEF A1-2A-BIM cells, Caspase-Glo 3/7 luminescence, 3 h; percent of clofoctol response, vehicle zero; caspase activation, % (no concentration beside the values); 0.066% of 330,000 active; AID 2462;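 active means over half of replicate activation scores above 10%, or exactly half above 10 with the replicate mean above 10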;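 further: wells of about 30 µL received 50 nL stock; many hits fall short of the cut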
FGF22 binding: binders of recombinant human FGF22 by thermal shift. calls only at 9.99 µM. SYPRO orange fluorescence; percent of sucrose octasulfate shift, DMSO zero. AID 651658. 1.5% of 340,000 active;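 active means melting point raised past a set limit in the mean and every replicate; three in four hits are not shown here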
Target sequence (Q9HCT0 whole entry, looked up): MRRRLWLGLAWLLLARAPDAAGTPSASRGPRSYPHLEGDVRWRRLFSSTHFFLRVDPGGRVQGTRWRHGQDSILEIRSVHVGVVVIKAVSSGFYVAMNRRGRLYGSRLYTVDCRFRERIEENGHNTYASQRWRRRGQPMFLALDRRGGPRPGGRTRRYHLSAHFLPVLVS
Ecoli rRNA inh: inhibitors of bacterial rRNA selective over humanized ribosomes | E. coli WT GFP vs humanized-ribosome RFP mutants, fluorescence, 24 h; stronger effect = lower value; DMSO median 0, no signal -100 | GFP signal change (wild-type ribosome), % (test concentration not listed) | 1.6% of 350,000 active;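 active means significant combined selectivity score with lowered wild-type GFP, culture density cut under 30%, mutant RFP and density less affected; inactive means any of these conditions unmet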; further: one replicate is shown; some compounds called inactive have numbers as strong as hits
UCH37 inh: human UCH37 deubiquitinating enzyme inhibition; purified proteasome/UCH37, Ub-AMC cleavage fluorescence; Q9Y5K5; AID 588478; 0.33% of 330,000 active; inhibition, % (concentration not given with the values);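 active means mean of two replicates above 20%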;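 further: 0% = compound-free wells with enzyme and 100% = wells lacking proteasome; stock transfer was 100 nL into about 20 µL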
Target sequence (Q9Y5K5 whole entry, looked up): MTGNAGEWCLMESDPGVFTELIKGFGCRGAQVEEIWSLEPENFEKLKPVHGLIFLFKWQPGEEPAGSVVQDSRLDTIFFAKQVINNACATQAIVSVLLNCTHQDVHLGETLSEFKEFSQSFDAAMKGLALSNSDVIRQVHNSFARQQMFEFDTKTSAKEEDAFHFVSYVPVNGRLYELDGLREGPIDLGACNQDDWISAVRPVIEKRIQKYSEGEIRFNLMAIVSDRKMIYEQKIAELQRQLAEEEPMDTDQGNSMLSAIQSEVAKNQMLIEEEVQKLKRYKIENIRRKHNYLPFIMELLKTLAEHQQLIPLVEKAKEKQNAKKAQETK
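Assay system: Proteasome-bound UCH37. Buffer or medium: pH 7.4 Tris-HCl (50 mM) with ovalbumin, ATP-MgCl2, DTT. Incubation: 30 min preincubation with enzyme, 25 min cleavage at room temperature. Measured by: fluorescence, ex 355 nm, em 460 nm. Read-out basis: percent inhibition. Control set: wells without proteasome as full block, compound-free enzyme plus substrate as uninhibited.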
E coli growth: blocks Escherichia coli growth; OD600 absorbance (no concentration beside the values); 0.21% of 330,000 active; OD600, 23 h; stronger effect = lower value;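 active means OD600 absorbance below the run mean of sample wells minus 3.6 SD, in any replicate, cut at about 0.56 in these data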;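 further: stock transfer was 300 nL into about 60 µL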
Ecoli rRNA inh OD600: second read-out of Ecoli rRNA inh, no call of its own (marks repeat the call); OD600 change, %; measured here: OD600 growth;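 optical density of the mix in the first replicate; 0 = DMSO median and -100 = no signal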
Ecoli rRNA inh RFP: also measured in Ecoli rRNA inh; calls as there; RFP signal change, %; measured here: RFP humanized mutant strains;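 first replicate; 0 = DMSO median and -100 = no signal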
Starred values were filed as active, the others as inactive; & = joins results of further samples.

Results for O=C(NCC(c1ccco1)N1CCc2ccccc2C1)c1ccccc1Br (centres undefined) ?
T cruzi repl: 1; AF4-AF9 inh: 12; Beta apoptosis: -4; A1 inh: 0.7; FGF22 binding: inactive; Ecoli rRNA inh: 1; UCH37 inh: 3.0; E coli growth: 0.64; Ecoli rRNA inh OD600: -4; Ecoli rRNA inh RFP: -0.1

Results for CCOC(=O)C1=CN(Cc2ccco2)S(=O)(=O)NC1c1cccc(OC)c1 (centres undefined) ?
AF4-AF9 inh: -1.0; FGF22 binding: inactive; Ecoli rRNA inh: 1; UCH37 inh: 5.3; E coli growth: 0.71; Ecoli rRNA inh OD600: 1; Ecoli rRNA inh RFP: 4.5

Results for Cn1c(SCC(=O)N2CCCC2)nc2ccccc2c1=O ?
T cruzi repl: 4; Beta apoptosis: -10; A1 inh: 0.1; UCH37 inh: 1.9; E coli growth: 0.72

Results for COC(=O)N/N=C/c1cccs1 ?
T cruzi repl: -13; AF4-AF9 inh: 0.0; Beta apoptosis: 3; A1 inh: 1.3; Ecoli rRNA inh: 13; Ecoli rRNA inh OD600: 12; Ecoli rRNA inh RFP: 1.3

What do the screens show for `Cc1ccc(Cn2ccc(NC(=O)c3cc(CC(C)C)on3)n2)cc1`?
T cruzi repl: 24; AF4-AF9 inh: 0.5; Beta apoptosis: -3; A1 inh: -0.2; FGF22 binding: inactive; Ecoli rRNA inh: -3; UCH37 inh: 2.5; E coli growth: 0.76; Ecoli rRNA inh OD600: -15; Ecoli rRNA inh RFP: -7.4

Results for O=C(Nc1cccc(S(=O)(=O)N2CCOCC2)c1)c1ccccn1 ?
T cruzi repl: 18; AF4-AF9 inh: -16; Beta apoptosis: -1; A1 inh: 1.5; FGF22 binding: inactive; Ecoli rRNA inh: 4; UCH37 inh: 1.9; E coli growth: 0.7; Ecoli rRNA inh OD600: -2; Ecoli rRNA inh RFP: -5.5

What do the screens show for `Nc1ccc(-c2cnc3ccccc3n2)cc1`?
T cruzi repl: 17; AF4-AF9 inh: -2.2; A1 inh: -8.1; FGF22 binding: inactive; Ecoli rRNA inh: -7; UCH37 inh: 0.5; E coli growth: 0.64; Ecoli rRNA inh OD600: 5; Ecoli rRNA inh RFP: 3.9

How did COc1ccc2c3c(cccc13)OC2=O do in these assays?
T cruzi repl: -7; AF4-AF9 inh: 0.5; Beta apoptosis: 5; A1 inh: 0.5; FGF22 binding: inactive; Ecoli rRNA inh: 12; UCH37 inh: 2.5; E coli growth: 0.7; Ecoli rRNA inh OD600: 15; Ecoli rRNA inh RFP: 1.8

How did CC(=O)c1cn(C(=O)c2ccc(Cl)cc2)c2ccccc12 do in these assays?
T cruzi repl: -13; AF4-AF9 inh: -0.6; Beta apoptosis: 1; A1 inh: -1.4; FGF22 binding: inactive; Ecoli rRNA inh: 1; UCH37 inh: -0.5; E coli growth: 0.7; Ecoli rRNA inh OD600: -1; Ecoli rRNA inh RFP: -0.7

How did COc1cc(/C=C/C2=NC(=O)C(C)(C)O2)ccc1O do in these assays?
T cruzi repl: -5; A1 inh: -1.4; UCH37 inh: -7.5; E coli growth: 0.7

Results for CC(=O)Nc1ccc(S(=O)(=O)Nc2nc3c(s2)CCCC3)cc1 ?
T cruzi repl: 2; Beta apoptosis: -4; A1 inh: 0.0; UCH37 inh: -3.0; E coli growth: 0.76

How did CC(=O)Nc1ccc(S(=O)(=O)N(Cc2ccco2)CC2CCCO2)cc1 (centres undefined) do in these assays?
T cruzi repl: 6; A1 inh: 0.3; UCH37 inh: 2.5; E coli growth: 0.74

The list goes on, overlapping the part above by 2 compounds.
Results for CC(=O)Nc1ccc(S(=O)(=O)Nc2nc3c(s2)CCCC3)cc1 ?
T cruzi repl: 2; Beta apoptosis: -4; A1 inh: 0.0; UCH37 inh: -3.0; E coli growth: 0.76

How did CC(=O)Nc1ccc(S(=O)(=O)N(Cc2ccco2)CC2CCCO2)cc1 (centres undefined) do in these assays?
T cruzi repl: 6; A1 inh: 0.3; UCH37 inh: 2.5; E coli growth: 0.74

Results for CCOC(=O)c1nn(-c2ccc(F)cc2)c(=O)cc1OCC(=O)Nc1ccc(F)c(F)c1 ?
T cruzi repl: -11; AF4-AF9 inh: -2.7; Beta apoptosis: -3; A1 inh: 0.8; Ecoli rRNA inh: -2; UCH37 inh: 1.1; E coli growth: 0.7; Ecoli rRNA inh OD600: 4; Ecoli rRNA inh RFP: -0.8

What do the screens show for `COc1cc(/C=N/NC(=O)Cc2csc(C)n2)ccc1OCC(C)C`?
T cruzi repl: 13; AF4-AF9 inh: -0.3; Beta apoptosis: -6; A1 inh: 0.0; FGF22 binding: inactive; Ecoli rRNA inh: -7; Ecoli rRNA inh OD600: -3; Ecoli rRNA inh RFP: 4.3

What do the screens show for `CCc1ccc(CNC(=O)CCn2nc(C)c3c(C)n(-c4ccccc4)nc3c2=O)cc1`?
T cruzi repl: 2; AF4-AF9 inh: 0.0; Beta apoptosis: 0; A1 inh: 0.0; FGF22 binding: inactive; Ecoli rRNA inh: 3; UCH37 inh: 0.4; E coli growth: 0.72; Ecoli rRNA inh OD600: 4; Ecoli rRNA inh RFP: 0.1

What do the screens show for `CCOc1ccc(/C=N/NC(=O)CC(=O)Nc2ccc(Cl)c(Cl)c2)cc1`?
T cruzi repl: 2; AF4-AF9 inh: -2.2; Beta apoptosis: -4; A1 inh: 0.5; FGF22 binding: inactive; Ecoli rRNA inh: 9; Ecoli rRNA inh OD600: 11; Ecoli rRNA inh RFP: -3.3

What do the screens show for `COC(=O)c1cc(C(=O)Nc2nc3ccccc3[nH]2)cc([N+](=O)[O-])c1`?
T cruzi repl: 25; AF4-AF9 inh: 4.4; Beta apoptosis: 10; A1 inh: -0.8; FGF22 binding: inactive; Ecoli rRNA inh: 0; UCH37 inh: 5.0; E coli growth: 0.7; Ecoli rRNA inh OD600: 0; Ecoli rRNA inh RFP: 1.0

Results for O=C(COc1ccc(Br)cc1)N/N=C1/SCC(=O)N1Cc1ccco1 ?
T cruzi repl: -31; AF4-AF9 inh: 2.8; Beta apoptosis: -1; A1 inh: 0.5; FGF22 binding: inactive; Ecoli rRNA inh: -23*; Ecoli rRNA inh OD600: -11*; Ecoli rRNA inh RFP: 0.8*

Results for COc1cccc(CNCc2ccc(OC)c3ccccc23)c1OC ?
T cruzi repl: 6; AF4-AF9 inh: 0.5; Beta apoptosis: 6; A1 inh: 2.3; FGF22 binding: inactive; Ecoli rRNA inh: -22; UCH37 inh: 5.4; E coli growth: 0.68; Ecoli rRNA inh OD600: -32; Ecoli rRNA inh RFP: 13

How did Cc1ccccc1OCC(=O)Nn1c(COc2ccccc2)nc2ccccc2c1=O do in these assays?
T cruzi repl: -10; Beta apoptosis: 1; A1 inh: -0.2; UCH37 inh: 0.3; E coli growth: 0.72

Results for COC(=O)c1cc(=O)c2cccc(OC)c2[nH]1 ?
T cruzi repl: 4; AF4-AF9 inh: 2.9; Beta apoptosis: 1; A1 inh: 0.1; FGF22 binding: inactive; Ecoli rRNA inh: 14; UCH37 inh: -199; E coli growth: 0.64; Ecoli rRNA inh OD600: 7; Ecoli rRNA inh RFP: 1.1

How did COc1ccc(S(=O)(=O)N2CCCC2)cc1C(=O)N1CCCCC1 do in these assays?
T cruzi repl: 13; AF4-AF9 inh: 0.7; Beta apoptosis: -6; A1 inh: 0.3; FGF22 binding: inactive; Ecoli rRNA inh: 12; UCH37 inh: 2.0; E coli growth: 0.64; Ecoli rRNA inh OD600: 13; Ecoli rRNA inh RFP: 0.2

What do the screens show for `C[C@H](CO)N1C[C@H](C)[C@H](CN(C)C(=O)Nc2cccc3ccccc23)Oc2c(NC(=O)c3ccc(-c4nccs4)cc3)cccc2C1=O`?
AF4-AF9 inh: -4.0&-18; Beta apoptosis: -8; A1 inh: 0.0; FGF22 binding: inactive; Ecoli rRNA inh: -3&9; UCH37 inh: -0.7; E coli growth: 0.78; Ecoli rRNA inh OD600: -16&-6; Ecoli rRNA inh RFP: -1.4&-4.0

Results for CC(C)CN1CC(C)C(=O)N(c2ccccc2)C1=S (centres undefined) ?
AF4-AF9 inh: -2.7; FGF22 binding: inactive; Ecoli rRNA inh: 6; UCH37 inh: 1.7; E coli growth: 0.65; Ecoli rRNA inh OD600: 10; Ecoli rRNA inh RFP: -5.9

How did CC(C)(C)OC(=O)NCCc1nnc(SCc2ccccc2Cl)o1 do in these assays?
T cruzi repl: 26; Beta apoptosis: -5; A1 inh: 0.5; UCH37 inh: 0.7; E coli growth: 0.62

Results for CCN(CC)CCn1c2c(c(SCC(=O)Nc3ccc4c(c3)OCCO4)nc1=O)CCC2 ?
T cruzi repl: 1; AF4-AF9 inh: -0.1; Beta apoptosis: -1; A1 inh: -0.9; Ecoli rRNA inh: 5; UCH37 inh: 7.9; E coli growth: 0.67; Ecoli rRNA inh OD600: 8; Ecoli rRNA inh RFP: -1.8

What do the screens show for `CCOC(=O)C1CCN(C(=O)COC(=O)c2ccc([N+](=O)[O-])o2)CC1`?
AF4-AF9 inh: -2.7; Beta apoptosis: 1; A1 inh: 0.8; FGF22 binding: inactive; Ecoli rRNA inh: 11; UCH37 inh: 20*; E coli growth: 0.65; Ecoli rRNA inh OD600: -1; Ecoli rRNA inh RFP: 1.3

How did O=C(CNCc1ccco1)Nc1ccc(Oc2ccccc2)cc1 do in these assays?
AF4-AF9 inh: 7.5; Beta apoptosis: -4; A1 inh: -0.7; FGF22 binding: inactive; Ecoli rRNA inh: -35; UCH37 inh: 0.4; E coli growth: 0.62; Ecoli rRNA inh OD600: -49; Ecoli rRNA inh RFP: -5.3

Results for CCOC(=O)c1cnc2cc(Cl)c(OC)cc2c1NCC1CCCO1 (centres undefined) ?
T cruzi repl: 22; Beta apoptosis: -10; A1 inh: -1.6; UCH37 inh: -23; E coli growth: 0.75

Results for CCC[n+]1c(C)sc2c3c(ccc21)CCCC3 ?
Beta apoptosis: 15; A1 inh: -1.3; UCH37 inh: 7.2; E coli growth: 0.67

Results for O=C(Oc1c(Br)cc(C(=S)N2CCOCC2)cc1Br)c1ccc(Cl)cc1 ?
T cruzi repl: -7; Beta apoptosis: 3; A1 inh: -2.3; UCH37 inh: 3.4; E coli growth: 0.72

How did COc1cc(C(=O)Nc2cccc(NC(=O)c3cccs3)c2)cc(OC)c1OC do in these assays?
T cruzi repl: -19; AF4-AF9 inh: -4.5; Beta apoptosis: 7; A1 inh: 1.4; FGF22 binding: inactive; Ecoli rRNA inh: -15; UCH37 inh: 3.5; E coli growth: 0.69; Ecoli rRNA inh OD600: -17; Ecoli rRNA inh RFP: -1.4

What do the screens show for `CCOC(=O)NC1(NC(C)C)Oc2ccccc2O1`?
T cruzi repl: -9; Beta apoptosis: -5; A1 inh: 0.8; UCH37 inh: 5.2; E coli growth: 0.74

How did CCOc1ncccc1C(=O)Nc1ccc2nc(C)sc2c1 do in these assays?
T cruzi repl: 2; AF4-AF9 inh: 0.5; Beta apoptosis: 13; A1 inh: -1.5; Ecoli rRNA inh: 2; UCH37 inh: -13; E coli growth: 0.65; Ecoli rRNA inh OD600: 8; Ecoli rRNA inh RFP: 5.7

Results for O=C(Nc1ccc(Cl)cc1)C(Cl)C(=O)c1ccccc1 (centres undefined) ?
T cruzi repl: 0; AF4-AF9 inh: -2.2; Beta apoptosis: 8; A1 inh: -1.2; FGF22 binding: inactive; Ecoli rRNA inh: 9; Ecoli rRNA inh OD600: 1; Ecoli rRNA inh RFP: -14

Some of the compounds tested; rates above refer to the full screens.
